Sa helicase inh = S. aureus DNA helicase inhibition; purified S. aureus helicase, fluorescence unwinding assay; about half of the hits fall short of the stated cut; inhibition, %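 (tested at about 80 µM)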; 0.05% of 120,000 active; AID 485395;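 active = both duplicates at 50% or more, or one of them with a favoured structure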;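 note: 0% = mean of negative control wells and 100% = mean of positive control wells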
MgrA-DNA mod = alters Staphylococcus aureus MgrA binding to DNA | fluorescence polarization | inhibition, %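 (about 10 µg/mL by stock and volumes)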 | 0.13% of 84,000 active | AID 602314;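 active = above 50% in either of two replicates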;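 note: 0% = protein plus DNA without compound and 100% = DNA alone without protein; higher means less MgrA bound to DNA so lower polarization; one replicate is shown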
* hit, by the source's call; . = not tested or not shown; & = joins results of further samples. Only part of the results is shown. The share of hits here may be higher or lower than overall.

Values run as follows: Sa helicase inh | MgrA-DNA mod
CCN1C[C@]2(C)CC[C@H](O)C34C5C[C@H]6C(O)C5[C@](O)(C[C@@H]6OC)C(CC32)[C@@H]14 (some centres undefined)
    . | -0.6
O=C(O)C1=CC2c3ccccc3C1c1ccccc12
    2.0 | -7.0
COc1cccc(CN2CCN(Cc3ccccc3)CC2)c1
    1.0 | -2.4
CCCOc1ccc(C2C(C#N)=C(N)Oc3c2c(=O)oc2ccccc32)cc1OC (centres undefined)
    . | -1.8
COc1ccc(C2=NC3(CCNCC3)NC2=S)cc1
    -16.0 | .
CCOC(=O)C(O)(c1cn(C)c2ccccc12)C(F)(F)F (centres undefined)
    15.0 | .
O=P(OCC(F)(F)F)(N1CCCCC1)N1CCCCC1
    8.0 | 4.3
CN1C(=O)NC(=O)/C(=C/c2ccco2)C1=O
    1.0 | 12.2
CNC(=O)O/N=C(\N)c1nn(C(=O)NC)cc1Br
    -12.0 | .
O=P12CN3CN(CN(C3)C1)C2
    -4.0 | .
CC1(C)CC2(CCCN(CC#N)C2)CCO1 (centres undefined)
    -10.0 | 0.1
CC1(C)CC(n2cccc2)CC(C)(C)N1
    28.0 | .
Cc1ccc(N2Cc3ccccc3C2=N)cc1
    -13.0 | .
O/N=C1\CCC2CN(C3CCCCC3)CC2C1 (centres undefined)
    -3.0 | -0.2
C[C@]12CC[C@@H](O)C[C@@H]1CC[C@@H]1[C@@H]2CC[C@]2(C)C(=O)CC[C@@H]12
    . | 3.9
CN(C)C1=C(C#N)C(c2ccccc2)=NP(N(C)C)(N(C)C)=N1
    9.0 | .
O=C1CN=C(c2ccccc2)c2ccccc2N1
    . | 2.1
COc1ccccc1NC1=NCCS1
    -19.0 | 0.6
CC(CN1CC2CC(C1)c1cccc(=O)n1C2)SC(=N)N (centres undefined)
    -4.0 | -0.5
CC(=O)OCOCC(=O)OCO[P+](=O)C(OCOC(C)=O)c1cc([N+](=O)[O-])ccc1Oc1ccc(Br)cc1 (centres undefined)
    . | -0.8
C1=C(c2ccccc2)CCN(Cc2nnc(-c3ccco3)o2)C1
    -3.0 | .
CCN1CCN(CC(c2ccccc2)c2ccccc2)CC1
    9.0 | -2.6
Cc1cccc(C)c1OC(=O)Cc1ccccc1
    6.0 | -1.4
O=[N+]([O-])c1cc(C(F)(F)F)cc([N+](=O)[O-])c1N1CCNCC1
    . | -1.0
O=c1c2ccccc2nc(-c2ccccc2)n1-c1ccccc1
    15.0 | -4.2
CCOc1cc(CNCCc2ccccc2)ccc1OC
    -5.0 | .
O=c1[nH]ncc(N2CCOCC2)c1Cl
    0.0 | .
Cc1ccc(S(=O)(=O)Nc2c(C(=O)NCc3ccco3)c3nc4ccccc4nc3n2Cc2ccco2)cc1
    -15.0 | .
CN(C)C(=O)Oc1ccc(C2SCCS2)cc1
    . | -1.7
OC1CC2CCC(C1)N2CCc1ccccc1 (centres undefined)
    11.0 | .

Other records
Values run as follows: Sa helicase inh | MgrA-DNA mod
Cc1ccc(S(=O)(=O)Nc2ccc(C(=O)NCCN(C)C)cc2)cc1
    -15.0 | .
CC12CCC3C(CCC4CC(=O)CC43C)C1CCC2O (centres undefined)
    19.0 | .
O=C(OCC1CCCN2CCCCC12)C1CCNCC1 (centres undefined)
    10.0 | -2.4
Cc1ccc(C(=O)NC2CN3CCC2CC3)cc1NC(=O)c1ccco1 (centres undefined)
    6.0 | .
CCOc1ccc2nc(N=Nc3c(O)[nH]c(=O)[nH]c3=O)sc2c1
    14.0 | .
N#CC1=C2SCC(O)(c3ccco3)N2C(=O)CC1c1ccccc1F (centres undefined)
    13.0 | .
CCOC(=O)C(O)(c1ccc(N)c(OC)c1)C(F)(F)F (centres undefined)
    . | -0.3
O=C(c1cc(-c2cccnc2)nc2ccccc12)N1CCC2(CC1)OCCO2
    19.0 | -0.2
Cc1nc2c(o1)NC(N)=C(C#N)C21CCN(C)CC1
    -13.0 | 7.8
Cc1cc(C(=O)CN2CCCC2)c(C)n1-c1ccc(F)cc1
    -2.0 | .
CCOc1ccccc1CN1CCN(C)CC1
    4.0 | 1.6
CCCC[C@@H](C)[C@@H](OC(=O)C[C@@H](CC(=O)O)C(=O)O)[C@H](C[C@@H](C)C[C@H](O)CCCC[C@@H](O)C[C@H](O)[C@H](C)N)OC(=O)C[C@H](CC(=O)O)C(=O)O
    . | 3.4
NC(N)=NCc1cccnc1
    0.0 | .
Cc1nc2cc(CCl)ccc2s1
    -7.0 | 5.2
c1ccc(C2CC2)c(OCC2=NCCN2)c1
    . | 2.6
CC1CCCCN1S(=O)(=O)c1ccc(CCN)cc1 (centres undefined)
    8.0 | .
CN1CCN(Cc2coc3ccccc3c2=O)CC1
    18.0 | -7.1
C1CCC(NCC2OCCCCO2)CC1
    -1.0 | 0.1
CCc1ccc(CN2CCN(Cc3cccc(OC)c3)CC2)cc1
    1.0 | -1.9
CC12CC[C@H]3[C@@H](CCC4(O)C[C@H](O)CCC34/C=N/Nc3ccccc3)C1(O)CCC2C1=CC(=O)OC1 (some centres undefined)
    7.0 | .
COc1ccc2c(c1)[nH]c1c(C)nccc12
    . | 1.9&0.4
C1CCCN(C2CCNCC2)CC1
    6.0 | 0.5
CC(Cc1ccccc1)NCc1ccco1 (centres undefined)
    4.0 | -0.2
Oc1c(Cl)cc(Cl)cc1CN1CCN(c2cccc(Cl)c2)CC1
    6.0 | -3.1
CSc1nc2ccccc2c(=O)n1-c1cccnc1
    . | 3.0
CCn1cc(C=C(C#N)C#N)c2ccccc21
    6.0 | -2.6
C/C=C(\C)C(=O)O[C@H]1C[C@@H](OC(C)=O)[C@@]2(C(=O)OC)CO[C@@H]3C2[C@]12CO[C@](O)(C(=O)OC)[C@H]2[C@](C)(C12O[C@@]1(C)[C@H]1C[C@@H]2OC2OC=C[C@@]21O)[C@@H]3O (some centres undefined)
    . | 2.0
CC(=O)Nc1ccc(Cc2ccc(NC(C)=O)cc2)cc1
    . | -0.4
Fc1ccccc1CN1CCN(c2cccc3[nH]ccc23)CC1
    . | 0.6
CCC1(CCc2ccncc2)C(=O)NC(=O)NC1=O
    12.0 | -5.5

Given field by field: part of the list above
CN(C)C1=C(C#N)C(c2ccccc2)=NP(N(C)C)(N(C)C)=N1
  Sa helicase inh = 9.0	MgrA-DNA mod = .

CN1C(=O)NC(=O)/C(=C/c2ccco2)C1=O
  Sa helicase inh = 1.0	MgrA-DNA mod = 12.2

Cc1ccc(S(=O)(=O)Nc2ccc(C(=O)NCCN(C)C)cc2)cc1
  Sa helicase inh = -15.0	MgrA-DNA mod = .

Next section:
Values run as follows: Sa helicase inh | MgrA-DNA mod
N#CC(C#N)=Cc1sccc1C1OCCO1
    24.0 | .
CCC(=O)OC1(c2cccc(C)c2)CC(C)N(C)CC1C (centres undefined)
    -7.0 | -4.1
S=C(S)N1CCCCC1c1cccnc1 (centres undefined)
    1.0 | -0.5
COc1ccc(CCNCc2sccc2C)cc1
    -2.0 | 0.8
Oc1ccccc1CC1CC2CCN1CC2 (centres undefined)
    -11.0 | .
CCN1C[C@]2(COC)CC[C@H](OC)[C@]34C5C[C@@H]6[C@@H](OC)CC7(OCO[C@]7([C@H]13)[C@@H](O)C24)C5[C@H]6OC (some centres undefined)
    . | 1.9
CCOc1ccc(/C=C(\C)[N+](=O)[O-])cc1OC
    . | -0.7
Cc1nc(N2CCN(C)CC2)c(C#N)c(C)c1Br
    . | 1.8
CCC(=O)NCC(=O)Nc1ccc(Br)cc1C(=O)c1ccccc1
    -9.0 | .
O=C1NC(=O)C(=Cc2ccc(SCc3ccc(Cl)cc3)o2)C(=O)N1
    23.0 | 13.8
CCCC1=C(C(=O)OCC)C2(C(=O)Nc3ccccc32)C(C(=O)OCC)=C(N)O1 (centres undefined)
    . | -1.0
C/C(=N\O)C(C)(C)NCCc1c[nH]c2ccccc12
    . | 0.3
CC1CC(=O)C2CCCCC2N1 (centres undefined)
    12.0 | -0.5
N#CCCn1cc(C(=O)O)c(-c2ccccc2)n1
    -13.0 | -4.1
O=C(c1cc2ccccn2n1)N1CCC2(CC1)OCCO2
    7.0 | -1.0
Cn1nnnc1SC1CCOC1=O (centres undefined)
    -12.0 | 0.7
CCOC(=O)c1nc2ccccc2c(=O)n1-c1ccc(Br)cc1
    -21.0 | 0.6
O=C(NC1CC2CCC(C1)N2)c1ccccc1 (centres undefined)
    -7.0 | 1.4
CC(=O)OC1CCC2C3CC[C@H]4C[C@@H]5C[C@@H]5[C@H](O)C4(C)C3CCC12C (some centres undefined)
    . | -1.4
O=c1c2ccccc2nc(CSc2ncnc3nc[nH]c23)n1-c1ccccc1
    . | -0.3
COc1ccc(-n2c(C)nc3ccccc3c2=O)cc1
    7.0 | 0.3
N#Cc1ccc(Cn2cc(C(=O)c3ccccc3)c3ccccc32)cc1
    3.0 | -1.2
CCC1c2c(nc(C)[nH]c2=O)Oc2c1c(=O)oc1ccccc21 (centres undefined)
    . | 0.3
CNCCCc1ccccc1
    12.0 | -1.5
O=c1ccsn1-c1cccc(Cl)c1F
    . | 13.5
CNCCn1ccc2ccccc21
    2.0&11.0 | .
Cn1c(CCN)nc2ccccc21
    -6.0 | 2.5
Cc1ccc(CN(C(=O)Nc2ccc(C)c(F)c2)C2CCN(Cc3ccccc3)CC2)o1
    21.0 | .
OC(CNC1CCCC1)c1ccccc1 (centres undefined)
    -6.0 | .
O=c1c2ccccc2nc(-c2ccccc2)n1-c1ccccc1O
    14.0 | .

A draw from above in order of count of non-hydrogen atoms, smallest number first.
Values run as follows: Sa helicase inh | MgrA-DNA mod
CC1CC(=O)C2CCCCC2N1 (centres undefined)
    12.0 | -0.5
N#CC(C#N)=Cc1sccc1C1OCCO1
    24.0 | .
CCCC1=C(C(=O)OCC)C2(C(=O)Nc3ccccc32)C(C(=O)OCC)=C(N)O1 (centres undefined)
    . | -1.0
Cc1ccc(CN(C(=O)Nc2ccc(C)c(F)c2)C2CCN(Cc3ccccc3)CC2)o1
    21.0 | .

Additional structures follow:
Values run as follows: Sa helicase inh | MgrA-DNA mod
CC(O)(CNC12CC3CC(CC(C3)C1)C2)c1ccc(Cl)cc1 (centres undefined)
    12.0 | 0.2
O=P1(NCCCl)OCCCN1CCCl (centres undefined)
    . | 0.5
CCOC(=O)C1(O)c2ccccc2-c2ccccc21
    11.0 | -3.0
Cc1oc(-c2ccc(Cl)cc2)nc1CS(=O)CC(=O)N1CCC2(CC1)OCCO2 (centres undefined)
    8.0 | .
O=C(CN1C(=O)CCC1=O)Nc1ccc(Cl)cc1C(=O)c1ccccc1
    -14.0 | .
CCC(=O)O[C@H]1CC[C@H]2[C@@H]3CCC4=CC(=O)CC[C@]4(C)[C@H]3CC[C@]12C
    . | 5.2
CCc1ccc(N2C(=O)/C(=C/c3ccc(OCC(=O)O)c(Br)c3)C(=O)NC2=S)cc1
    . | 20.4
Cc1cc(OC(C)C)c2c3c(c(=O)oc2c1)CCCC3
    -6.0 | -0.9
COc1ccccc1C=C(C#N)C#N
    . | -2.1
COc1cc(-n2c(SC)nc3ccccc3c2=O)c(OC)cc1Cl
    . | -0.5
CSc1ccc(CNC2CN3CCC2CC3)cc1 (centres undefined)
    2.0 | -1.5
CCC(C)N=Cc1c(O)n(-c2ccccc2)c(=O)[nH]c1=O (centres undefined)
    . | 8.8
Cc1ccc(S(=O)(=O)Oc2ccccc2C=C2C(=O)N(C)C(=O)N(C)C2=O)cc1
    . | 1.5
Cc1cc2oc(=O)c3c(c2c(O)c1CN(C)C)CCCC3
    5.0 | -5.9
O=c1cc(O)c2ccccc2o1
    25.0 | .
Cc1cccc(OP(N)(N)=O)c1C
    -22.0 | .
O=c1[nH]c2ccccc2n1C1CCN(CCCC(c2ccc(F)cc2)c2ccc(F)cc2)CC1
    . | 0.1&-2.3&1.2
N#Cc1ccc(N2CCNCC2)nc1
    . | 0.2
CC12CN3CC(C)(CN(C1)C3c1ccccc1)C2 (centres undefined)
    15.0 | 2.1
CN(C(=O)c1ccco1)C1(c2ccccc2Cl)CCCCC1=O (centres undefined)
    -7.0 | .
O=c1c2ccccc2[nH]c(=S)n1-c1ccc(Cl)c(Cl)c1
    . | -0.6
CN1CCc2nc(SCc3cccnc3)c(C#N)cc2C1
    6.0 | .
CN1C(=O)C(Cc2nc3ccccc3c(=O)n2-c2ccccc2)c2ccccc21 (centres undefined)
    6.0 | -4.3
COc1ccc2c(c1)c(C(=O)n1ccnc1)c(C)n2C1CCCCC1
    -8.0 | .
COc1ccc(CC(N)=O)cc1OC
    5.0 | 1.0
COC(=O)C1=C(C)NC(=O)C12C(C#N)=C(N)Oc1ccccc12 (centres undefined)
    6.0 | -1.1
N#CC(c1c[nH]c2ccccc12)N1CCCCCC1 (centres undefined)
    -11.0 | .
CCN1C[C@]2(COC)[C@H](O)C[C@H](OC)[C@@]34[C@@H]5C[C@@]6(O)[C@H](OC(=O)c7ccccc7)[C@@H]5[C@@](OC(C)=O)(C([C@H](OC)[C@H]23)[C@@H]14)[C@@H](O)[C@@H]6OC
    . | 0.9
C(SCc1nn[nH]n1)c1nn[nH]n1
    . | -0.4
Cc1nn(Cc2ccccc2)c(C)c1C(=O)OCC(=O)Nc1ccccc1SCC#N
    -88.0 | .

Additional results follow.
Values run as follows: Sa helicase inh | MgrA-DNA mod
CC1(C)CC2CC(C)(CN2Cc2cccnc2)C1 (centres undefined)
    7.0 | 2.6
O=C1C2CCN(CC2)C12CC2c1ccc(C(F)(F)F)cc1 (centres undefined)
    2.0 | .
OC1(c2ccc(F)cc2)CCNC1 (centres undefined)
    6.0 | .
COc1ccc(CC2C(=O)N(C)C(=O)N(C)C2=O)cc1
    11.0 | -2.0
NC(=O)c1cn(C2CCCCC2)c2ccccc2c1=O
    . | -1.4
CN1CCCSC1=Nc1ccccc1F
    -5.0 | 9.4
CC1=C(C(=O)OC(C)C)C2(C(=O)N(C)c3ccccc32)C(C#N)=C(N)O1 (centres undefined)
    14.0 | .
COC(=O)CC1=C(C(=O)OC)C2(C(=O)N1)C(C#N)=C(N)Oc1ccccc12 (centres undefined)
    8.0 | -4.0
Cc1ccccc1CN1CCCN(Cc2ccccc2)S1(=O)=O
    13.0 | .
O=C1/C(=C\c2ccc(N3CCOCC3)cc2)N2CCC1CC2
    6.0 | -1.7
